Compound activity as filed in PubChem BioAssay.
TIM10 inh = inhibits growth of TIM10 yeast strain; AID 463195; 1.4% of 330,000 active; inhibition, % at 10 µM; S. cerevisiae TIM10 strain growth, BacTiter-Glo luminescence, 24 h;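 active = inhibition of 40% or more at the single tested concentration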;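 note: wild-type TIM10 isogenic control strain grown at permissive 25 °C; 0% = DMSO yeast wells and 100% = minimal medium wells without yeast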
APJ agonist = agonists of human APJ apelin receptor; P35414; CHO-K1 APJ PathHunter beta-arrestin, luminescence; 0% DMSO wells, 100% apelin; activation, % at 20 µM; 0.11% of 330,000 active; AID 2520;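 active = activation more than six SD over the plate average, tested at 20 µM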;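 note: 0% = DMSO alone and 100% = apelin-13 at 10 nM; some results filed as inactive read as strong as hits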
Target sequence (P35414 whole entry, looked up): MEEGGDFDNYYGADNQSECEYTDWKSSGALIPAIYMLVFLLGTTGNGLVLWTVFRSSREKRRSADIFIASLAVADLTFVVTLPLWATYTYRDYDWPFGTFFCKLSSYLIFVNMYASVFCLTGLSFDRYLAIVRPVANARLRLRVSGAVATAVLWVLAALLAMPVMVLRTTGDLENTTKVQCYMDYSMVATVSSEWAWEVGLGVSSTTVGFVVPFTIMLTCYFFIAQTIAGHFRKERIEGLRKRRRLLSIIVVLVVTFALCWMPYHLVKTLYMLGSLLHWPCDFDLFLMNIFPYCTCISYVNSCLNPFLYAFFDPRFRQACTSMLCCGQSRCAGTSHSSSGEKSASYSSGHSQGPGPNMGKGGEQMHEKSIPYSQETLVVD
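system = engineered CHO-K1 APJ arrestin reporter cells | input = 1000 cells per well | timing = overnight seeding, 90 min compound at 25 °C, 1 h detection | measured by = enzyme-fragment complementation luminescence | read-out = beta-arrestin recruitment to APJ as agonist activity, luminescent signal | control set = negative DMSO alone, positive Apelin-13 at 10 nM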
CHOP UPR activ = activators of apoptotic arm of unfolded protein response (CHOP); 0.34% of 330,000 active; AID 449763; activation, % at 10 µM; CHO-CHOP luciferase reporter, UPR activation, luminescence; percent of tunicamycin response over DMSO baseline;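 active = at 10 µM dose, activation of 40% or more, normalized to positive control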;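 note: 100% = tunicamycin at 10 µg/mL and 0% = DMSO alone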
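assay system = CHO CHOP reporter cells | amount = 500 CHO-CHOP cells per well | buffer or medium = F12 with 10% FBS | incubation = 16-18 h cell attachment, then 6 h compound exposure, 37 °C | detection = luminescence read with Steady-Glo | read-out = percent activation relative to tunicamycin control | controls = tunicamycin high control, DMSO low control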
APJ antagonist = antagonists of human APJ apelin receptor | CHO-K1 APJ beta-arrestin complementation, luminescence | AID 2521 | P35414 | inhibition, % at 20 µM | 0.32% of 330,000 active;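 active = inhibition above about 40% at 20 µM, limit read from the data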;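 note: cells challenged with 10 nM apelin-13 agonist together with compound; plate controls were apelin-13 plus DMSO wells for no effect and DMSO wells lacking apelin-13 for full effect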
tim10-1 inh = tim10-1 yeast growth inhibition. inhibition, % at 20 µM. 2.2% of 330,000 active. AID 463190. S. cerevisiae tim10-1 ts strain growth, BacTiter-Glo, 24 h;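 active = inhibition of at least 40%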;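 note: mutant grown at 25 °C; 0% = DMSO wells with yeast and 100% = wells holding no yeast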
tim23-1 inh = growth inhibitors of tim23-1 mutant yeast; S. cerevisiae tim23-1 growth, BacTiter-Glo luminescence, 24 h; inhibition, % at 20 µM; 1.3% of 330,000 active;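 active = growth inhibition of the mutant yeast at or above 50%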;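 note: temperature-sensitive mutant grown at 25 °C; plate controls were DMSO-treated mutant yeast for no effect and medium wells lacking yeast for full effect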
UPR XBP1 act = activators of adaptive arm of unfolded protein response (XBP1); activation, % at 20 µM; CHO-XBP1 luciferase reporter, IRE1-XBP1 UPR activation, luminescence; percent of tunicamycin response, DMSO as zero; 0.33% of 330,000 active;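 active = versus positive control, 20 µM dose yields 30% or more activation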;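 note: 100% = tunicamycin at 10 µg/mL and 0% = DMSO only wells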
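Assay system: IRE1-XBP1 luciferase reporter CHO line. Input: 1000 cells/well. Buffer or medium: F12 with 10% serum. Doses: 20 µM, 1% DMSO. Times: overnight seeding at 37 °C, 6 h compound treatment at 37 °C. Technique: Steady-Glo luciferase glow luminescence, 10 min after reagent addition.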
Mdm2 MdmX PPI = inhibitors of human Mdm2/MdmX interaction. inhibition, % at 8 µM. SaOS-2 split-luciferase Mdm2/MdmX complementation, luminescence. 3% of 330,000 active;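 active = inhibition of at least 50% at 8 µM in the primary screen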
An asterisk follows results filed as active. These rows are one share of the data. The share of hits here may be higher or lower than overall.

SMILES	TIM10 inh	APJ agonist	CHOP UPR activ	APJ antagonist	tim10-1 inh	tim23-1 inh	UPR XBP1 act	Mdm2 MdmX PPI
Cc1ccc(-c2csc(NC(=O)c3ccc(-c4ccccc4)cc3)n2)o1	-26	-2	-0.6	-7	2	-9	-2	11
CCOC(=O)C1CCN(C(=O)CCCNC(=O)Cn2cnc3sc(C)c(C)c3c2=O)CC1	12	-2	-1.2	3	-10	8	-6	-17
CC(C)(C)c1ccc(C(=O)OCC(=O)Nc2sc3c(c2C#N)CCC3)cc1	-9	-1	0.0	-10	-4	-18	-3	0
Cc1ccc(/C=N/Nc2ccc3ccccc3n2)o1	10	-3	-5.9	-13	0	-1	-5	-72
O=C(NNC(=O)c1ccccc1-n1cccc1)c1ccc(F)cc1	3	-1	0.0	6	5	0	-1	16
COc1ccc(CSc2cccc3cccnc23)cc1[N+](=O)[O-]	3	-2	0.4	-4	13	23	4	-2
CCC(=O)Nc1nc2ccccc2n1Cc1ccccc1	10	-3	-0.2	15	28	8	-2	27
COc1ccc(C(=O)Oc2cccc3cccnc23)cc1[N+](=O)[O-]	-16	1	-0.9	-1	29	34	5	-25
NC(=O)c1ccc(NC(=O)COC(=O)C2(c3ccccc3F)CCCC2)cc1	15	-2	-0.9	-3	15	11	-1	4
CCOc1ccc(-n2cc(-c3ccccc3)c3c(N4CCOCC4)ncnc32)cc1	4	-1	-0.4	-22	35	20	4	74*
O=C(O)c1ccccc1Nc1cc(Cl)c2nonc2c1[N+](=O)[O-]	-9	0	1.3	-2	2	12	0	4
CCOc1ccc(NC(=O)CSc2ccc(-c3ccco3)nn2)cc1	7	-1	1.1	12	2	15	-3	6
COc1ccccc1NC(=O)CC(c1ccc(OC(C)C)cc1)c1ccccc1OC (stereo not given)	-2	0	-0.1	12	-1	11	-1	10
CCOC(=O)c1ccccc1NC(=O)CSc1ccc(-c2ccccn2)nn1	18	-1	-0.7	-2	27	18	-6	75*
CC1=C(C(=O)OCc2ccccc2)C(c2cccnc2)n2nnnc2N1 (stereo not given)	5	1	-0.2	7	12	2	-2	0
CC(C)(C)c1ccc(C(=O)NC(=S)Nc2nc3c(s2)CCCC3)cc1	25	-5	-1.7	34	28	24	-3	61*
c1ccc2oc(SCc3nc4ccccc4s3)nc2c1	-2	-4	0.0	13	6	31	1	-193
CCOCCCn1c(=S)[nH]c2cc(C(=O)NCc3ccc(F)cc3)ccc2c1=O	9	-1	1.7	-2	2	-4	-1	9
COc1ccc(NC(=O)C(c2cc3c(cc2[N+](=O)[O-])OCO3)N(C)Cc2ccccc2)cc1 (stereo not given)	16	4	0.2	-77	12	5	-1	-13
CCOc1ccc(S(=O)(=O)NCCC(=O)OCN2C(=O)c3ccccc3C2=O)cc1	24	-3	-0.7	-2	30	14	2	-6

Part of the list above, reduced to TIM10 inh:
SMILES	TIM10 inh
c1ccc2oc(SCc3nc4ccccc4s3)nc2c1	-2
CCOC(=O)C1CCN(C(=O)CCCNC(=O)Cn2cnc3sc(C)c(C)c3c2=O)CC1	12

Next section
SMILES	TIM10 inh	APJ agonist	CHOP UPR activ	APJ antagonist	tim10-1 inh	tim23-1 inh	UPR XBP1 act	Mdm2 MdmX PPI
C/C=C/C=C/C(=O)OCC(=O)Nc1ccc(Cl)cc1	-4	-1	-1.3	-22	16	12	-2	24
O=C(Nc1nc(-c2ccccc2)cs1)c1cccc([N+](=O)[O-])c1	-8	-2	3.3	14	-4	-13	7	-28
CC1=C(C(=O)Nc2ccccc2)C(c2cccs2)n2nnnc2N1 (stereo not given)	11	-5	-1.0	5	11	16	-4	7
CCCCN1CCCCC1C(=O)Nc1c(C)cc(C)cc1C (stereo not given)	-11	0	-2.3	12	20	-1	1	-26
CC(C)OCCCNC(=O)COCC(=O)Nc1ccc(OCCc2ccccc2)cc1	12	-2	0.2	-12	12	5	-3	16
Cc1ccc(C(=O)Oc2ccc(Cl)c3cccnc23)cc1[N+](=O)[O-]	10	0	81*	4	41*	39	22	20
Cn1c(SCC(=O)NCC2COc3ccccc3O2)nnc1C(F)(F)F (stereo not given)	-5	-3	2.2	2	-8	-7	-1	10
COc1cccc(C(=O)NCCS(=O)(=O)N2CC(C)CC(C)C2)c1 (stereo not given)	-2	-4	-2.8	11	8	2	-2	16
O=C(Nc1ccc2oc(=O)ccc2c1)c1cccnc1Cl	10	3	-3.7	-48	21	35	-3	-2
COc1ccccc1-c1n[nH]c(=S)n1Cc1ccccc1	9	2	0.4	-5	14	11	-8	6
COc1ccc(/C=C2/S/C(=N/N=C3\CC4CCC3(C)C4(C)C)NC2=O)cc1 (stereo not given)	6	2	-0.4	12	5	16	-2	17
C=CCn1c(SCC(=O)Nc2c(C)nn(Cc3ccccc3)c2C)nnc1C(O)c1ccccc1 (stereo not given)	6	1	-2.9	3	6	21	-1	5
Cc1ccccc1NC(=O)C1CC(Cl)=CCC1C(=O)O (stereo not given)	-2	0	-0.5	6	13	-2	1	-20
CC(C)CCNC(=O)[C@@H](NC(=O)c1c(F)cccc1F)C(C)C	12	-2	-0.5	-15	0	16	1	-6
O=C(O)c1cccc(Nc2cc(Cl)c3nonc3c2[N+](=O)[O-])c1	-2	-1	-0.5	-6	2	-9	2	13
CCc1cc(-c2[nH]ncc2-c2ccc3c(c2)OCO3)c(O)cc1O	16	3	-2.7	-9	-7	12	-3	78*
CCOC(=O)N1CCN(C(=O)c2cc(Cl)c(Cl)cc2C(=O)O)CC1	-1	7	1.7	-3	1	16	0	4
Cc1cccc(NC(=O)CSc2nccn2Cc2ccco2)c1	4	-4	5.8	19	21	21	0	-33
CC(/C=C/c1ccccc1)=N/NC(=O)CNC(=O)c1ccc2c(c1)OCO2	-6	-2	-3.0	5	-11	-4	-1	15
COc1ccc(/C=C/C(=O)NC(=S)N2CCCC(C(N)=O)C2)cc1 (stereo not given)	6	-1	0.8	12	-14	11	-5	-9

Of the compounds above, these contain two or more sulfur atoms.
SMILES	TIM10 inh	APJ agonist	CHOP UPR activ	APJ antagonist	tim10-1 inh	tim23-1 inh	UPR XBP1 act	Mdm2 MdmX PPI
CC(C)(C)c1ccc(C(=O)NC(=S)Nc2nc3c(s2)CCCC3)cc1	25	-5	-1.7	34	28	24	-3	61*
c1ccc2oc(SCc3nc4ccccc4s3)nc2c1	-2	-4	0.0	13	6	31	1	-193

Following part:
SMILES	TIM10 inh	APJ agonist	CHOP UPR activ	APJ antagonist	tim10-1 inh	tim23-1 inh	UPR XBP1 act	Mdm2 MdmX PPI
CCCCCCCC(=O)N/N=C(/C)c1c(O)cc(C)oc1=O	2	-2	-1.1	10	7	-7	-2	13
CC(C)CCNC(=O)CSc1nc2ccccc2c(=O)[nH]1	0	-4	-0.4	10	7	-4	0	1
CCOC(=O)C(=O)N/N=C(/c1ccccc1)c1ccc(OC)cc1	3	-3	-1.9	9	14	0	-2	21
COCc1c(C(=O)NCCc2ccc(OC(F)F)cc2)oc2ccccc12	9	-2	1.3	11	5	24	0	-9
COc1ccc(OC)c(-n2c(-c3cc(-c4ccccc4)n[nH]3)n[nH]c2=S)c1	8	0	-1.5	-9	17	6	0	17
Cc1c(N=NC2=C(O)CC(C)(C)CC2=O)c(=O)n(-c2ccccc2)n1C	11	-4	-2.6	16	9	-2	-4	-11
CN1c2ccccc2Oc2c(c(=O)n(C)c(=O)n2C)C1c1cccc([N+](=O)[O-])c1 (stereo not given)	-1	1	0.2	10	18	15	0	7
COc1ccc(C)cc1-n1c(SCC(=O)NCC2CCCO2)nc2c([nH]c3ccccc32)c1=O (stereo not given)	8	-7	0.4	0	10	9	-5	14
CC1=C(C(=O)Nc2ccccc2)C(c2ccncc2)n2nnnc2N1 (stereo not given)	-3	-2	-1.4	9	3	-2	-2	4
O=C(CSc1nccn1Cc1ccco1)Nc1ccccc1F	11	-6	4.4	10	19	21	-1	-4
O=C(Nc1ccc(N2CCOCC2)cc1N1CCOCC1)c1ncoc1-c1cccc(F)c1	26	-2	-0.9	-2	10	24	0	33
CC(/C=C/c1ccc2c(c1)OCO2)=N/NC(=O)c1ccc(C)nc1	-3	2	1.0	16	12	22	0	-4
CC1(C)Cc2c(C#N)c(SCCOc3ccccc3)nc(N3CCOCC3)c2CO1	26	2	-2.8	-44	19	28	2	-13
CCOC(=O)C1CCN(c2ncnc3c2c(-c2ccccc2)cn3-c2ccccc2)CC1	12	-5	2.7	1	19	28	0	12
CSc1nnc(NC(=O)c2nc(S(=O)(=O)Cc3ccc(C)cc3)ncc2Cl)s1	-10	-2	73*	10	41*	12	-6	98*
COc1ccccc1N1CN(CCc2ccccc2)CNC1=S	8	-2	-0.8	1	22	-3	-1	-34
CSc1nnc(NC(=O)c2nc(S(=O)(=O)Cc3ccccc3)ncc2Cl)s1	10	-3	56*	-6	14	15	-8	99*
COc1cc(C(C)=O)ccc1OCCCOc1cccc2cccnc12	0	-2	-1.7	2	6	37	-1	4
Cc1cc(NC(=O)c2cnn3c(C(F)(F)F)cc(-c4ccccc4)nc23)no1	21	0	0.9	12	7	26	1	10
COc1ccc(C2NC(c3ccc(OC)c(OC)c3OC)C(C)C(=O)C2C)c(OC)c1OC (stereo not given)	17	-4	1.7	0	9	13	-1	26

Another view of 7 compounds above.
Fields – TIM10 inh	APJ agonist	CHOP UPR activ	APJ antagonist	tim10-1 inh	tim23-1 inh	UPR XBP1 act	Mdm2 MdmX PPI
Cc1cc(NC(=O)c2cnn3c(C(F)(F)F)cc(-c4ccccc4)nc23)no1
 : 21	0	0.9	12	7	26	1	10
CN1c2ccccc2Oc2c(c(=O)n(C)c(=O)n2C)C1c1cccc([N+](=O)[O-])c1 (stereo not given)
 : -1	1	0.2	10	18	15	0	7
COc1cc(C(C)=O)ccc1OCCCOc1cccc2cccnc12
 : 0	-2	-1.7	2	6	37	-1	4
CCCCCCCC(=O)N/N=C(/C)c1c(O)cc(C)oc1=O
 : 2	-2	-1.1	10	7	-7	-2	13
CCOC(=O)C1CCN(c2ncnc3c2c(-c2ccccc2)cn3-c2ccccc2)CC1
 : 12	-5	2.7	1	19	28	0	12
O=C(CSc1nccn1Cc1ccco1)Nc1ccccc1F
 : 11	-6	4.4	10	19	21	-1	-4
CCOC(=O)C(=O)N/N=C(/c1ccccc1)c1ccc(OC)cc1
 : 3	-3	-1.9	9	14	0	-2	21

Remaining list, next part
SMILES	TIM10 inh	APJ agonist	CHOP UPR activ	APJ antagonist	tim10-1 inh	tim23-1 inh	UPR XBP1 act	Mdm2 MdmX PPI
COc1ccc(/C=N/NC(=O)c2ccc(NS(=O)(=O)c3cccs3)cc2)cc1	12	0	2.2	2	-1	3	2	0
CC(C)(C)NC(=O)CSc1nc(O)cc(=O)[nH]1	-8	-1	-1.4	1	2	3	-1	5
Cc1cc(C#Cc2c(-c3ccccc3)n(C)c3ccccc23)ccc1F	-10	6	-1.4	-2	23	1	-2	11
COc1cccc(C(=O)NC(=S)Nc2nnn(C)n2)c1	-10	-1	1.3	28	10	9	0	25
N#Cc1cnn2cc(-c3ncc(C(F)(F)F)cc3Cl)cnc12	0	-2	1.0	-6	14	12	-2	-10
Cc1c(Cc2c(C)n(C)n(-c3ccccc3)c2=O)c(=O)n(-c2ccccc2)n1C	8	-2	-0.1	4	-9	13	-1	-6
O=c1cc(-c2ccc(C(F)(F)F)cc2)oc2ccccc12	15	3	2.9	-30	24	27	5	10
COC(=O)c1ccc(OC(=O)c2nn(C)cc2Cl)c(OC)c1	9	-3	-0.8	10	25	10	-1	9
CC(NS(=O)(=O)c1ccc([N+](=O)[O-])cc1)C(=O)NN (stereo not given)	16	-2	0.0	-21	-6	10	8	13
